Screening data deposited in PubChem by National Center for Advancing Translational Sciences (NCATS).
NPR1 antag = antagonists of human natriuretic peptide receptor Npr1 | P16066 | HEK293 hNpr1 GloSensor cGMP, ANP-stimulated luminescence | Potency, µM (top dose mostly 46.3 µM), for inactives: at the highest dose activity change, negative = inhibition, hits mostly inhibitors | 76,000 compounds, 1.6% hits | AID 1347048; active = well fitted inhibition curve with a large enough effect; inconclusive = small, poorly fitted or top-dose-only effect; inactive = no such curve, though single readings can be large or run the other way;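 further: nearly all actives have a fitted effect of over 60% in size; nearly all hits also lower the signal before the agonist is added; a reference antagonist and vehicle were the controls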
Target sequence (P16066 whole entry, looked up): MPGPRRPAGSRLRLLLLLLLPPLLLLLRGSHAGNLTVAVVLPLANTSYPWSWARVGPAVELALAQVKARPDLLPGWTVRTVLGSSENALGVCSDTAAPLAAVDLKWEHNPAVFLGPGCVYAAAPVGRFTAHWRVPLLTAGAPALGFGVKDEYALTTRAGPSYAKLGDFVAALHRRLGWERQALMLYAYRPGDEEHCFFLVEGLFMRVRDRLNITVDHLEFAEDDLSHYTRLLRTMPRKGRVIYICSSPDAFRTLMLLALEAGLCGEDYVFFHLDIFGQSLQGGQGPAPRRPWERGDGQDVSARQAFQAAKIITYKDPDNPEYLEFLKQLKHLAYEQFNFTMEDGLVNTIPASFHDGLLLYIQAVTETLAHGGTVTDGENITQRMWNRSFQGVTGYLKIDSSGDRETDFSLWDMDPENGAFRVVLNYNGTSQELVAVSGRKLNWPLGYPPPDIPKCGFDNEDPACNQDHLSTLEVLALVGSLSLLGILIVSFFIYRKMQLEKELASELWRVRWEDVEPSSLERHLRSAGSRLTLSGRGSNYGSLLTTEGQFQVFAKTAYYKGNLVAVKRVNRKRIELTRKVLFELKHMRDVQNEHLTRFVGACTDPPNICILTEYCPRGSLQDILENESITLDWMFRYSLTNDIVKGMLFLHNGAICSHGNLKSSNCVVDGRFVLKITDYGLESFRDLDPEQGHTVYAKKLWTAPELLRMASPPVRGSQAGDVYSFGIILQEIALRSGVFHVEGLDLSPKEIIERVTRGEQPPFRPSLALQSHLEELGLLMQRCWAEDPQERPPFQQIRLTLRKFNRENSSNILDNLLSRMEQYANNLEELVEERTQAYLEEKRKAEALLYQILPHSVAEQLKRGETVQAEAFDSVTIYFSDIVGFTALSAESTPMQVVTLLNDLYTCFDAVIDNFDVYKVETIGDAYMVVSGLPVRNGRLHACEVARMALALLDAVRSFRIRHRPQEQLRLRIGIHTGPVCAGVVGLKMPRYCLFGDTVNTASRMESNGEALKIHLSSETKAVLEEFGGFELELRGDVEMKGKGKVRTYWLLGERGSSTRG
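HEK293 cells stably expressing human Npr1 and cGMP GloSensor pGS-40F, loaded 2 h with 2% GloSensor reagent, given compound 30 min at room temperature. Luminescence read before and 20 min after 0.1 nM hNppA.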
The depositor's hits bear a star; ? = inconclusive; [ ] = dose if it differs, or a comment. On the % scale 0 is the no-effect control and ±100 the full control effect; potency means the concentration at half of the fitted maximal effect.

SMILES | NPR1 antag
O=C(Nc1ccc(F)cc1)c1ccn2nccc2c1 | -9.4%[70.6 µM]
Cc1ncc2c(c1CNC(=O)CN1C(=O)NC(C)(C)C1=O)CCNC2 | 5.3%
CC(C)OCCCNC(=O)C1CC(=O)N(c2n[nH]c3ccccc23)C1 (stereo not drawn) | 3.4%
COc1ncccc1-c1cn(C)c(=O)n2cc(CN3CC[S+](=O)([O-])CC3)nc12 | 0.5%[70.6 µM]
O=C(c1cc(F)ccc1F)N1CCC(Cc2nc(-c3cnccn3)no2)CC1 | 7.2%
COC1C(=O)N(c2cccc(F)c2)C12CCN(C(=O)c1cccnc1)CC2 (stereo not drawn) | 1.0%
O=C(Nc1cccc(F)c1)c1cnc(-c2ccc(F)cc2)nc1-c1ccncc1 | ?
CN1CCC2(C1)CN(Cc1ccccc1)c1ccc(C(=O)NCC[S+](C)(=O)[O-])cc12 (stereo not drawn) | 3.0%[70.6 µM]

As entered above.
Value of `CN1CCC2(C1)CN(Cc1ccccc1)c1ccc(C(=O)NCC[S+](C)(=O)[O-])cc12` (stereo not drawn) in NPR1 antag: 3.0%[70.6 µM]
Value of `COC1C(=O)N(c2cccc(F)c2)C12CCN(C(=O)c1cccnc1)CC2` (stereo not drawn) in NPR1 antag: 1.0%

Later entries:
SMILES | NPR1 antag
Cn1c(CNC(=O)C2(C)CCCCC(=O)N2)nc2ccccc21 (stereo not drawn) | -11.4%
CSc1ncccc1C(=O)N1CCC2(CCCN(CC3CC3)C2=O)C1 (stereo not drawn) | -9.1%
CN(c1cc(=O)c2ccnc(-c3cncnc3)c2o1)C1CCOCC1 | 1.2%[70.6 µM]
CCOCCn1c(=O)n(Cc2c(C)noc2C)c2cc(C(=O)O)cnc21 | 5.2%
CN1CCN(C(=O)C2(N(C)CCc3ccccc3)Cc3ccccc3C2)CC1 | -5.9%
C[C@@H]1CN(C(=O)Cc2cc3c(cc2Cl)OCCO3)C[C@]1(C)O | 18.9%
COc1ccc(CC(=O)N2CCC[C@H]2c2nc(-c3ccccc3Cl)no2)cc1OC | ?
COCCN1CCNc2nc(COc3ccccc3OC(F)(F)F)n(Cc3ccccc3)c2C1=O | -1.1%
CN(CC1CCN(CCc2ccc(F)cc2)CC1)C1CCN(Cc2cccnc2)CC1 | 0.0%
CS(=O)(=O)NC1CCN(c2nc(-c3cccnc3)nc3c2CNC3)CC1 | 3.0%
CCc1cccc(NC(=O)Cn2c(=O)c(-c3noc(CC)n3)c3n(c2=O)CCCC3)c1 | -6.5%
CC1=C[C@@H](CNC(=O)CC(C)(C)CC(=O)O)[C@H](C(C)C)C[C@H]1Cc1nc2ncccc2[nH]1 | -4.9%
Cc1cc2nc3n(c(=O)c2n1CC(=O)NCc1ccc(F)cc1)CCCCC3 | ?
COCCN(CC1CCCN(C2Cc3ccccc3C2)C1)C(=O)c1cc(C)nn1C (stereo not drawn) | 0.0%
O=C(NCC1CC1)c1cccc(OC2CN(Cc3cc(F)c(F)c(F)c3)C2)c1 | 10.6%
COc1cccc(NC(=O)C2CCCN(Cc3ccncc3)CCC(=O)NCC2)c1 (stereo not drawn) | -3.4%
O=C(COc1ccccc1)NC1CCCc2c1[nH]c1ccccc21 (stereo not drawn) | -4.2%
CNC(=O)c1cnc2c(c1)N(Cc1ccccc1)CCC2 | -2.1%[70.6 µM]
Cc1noc(C)c1-c1cnc2[nH]cc(CC(=O)NCc3cccnc3)c2c1 | 0.4%[70.6 µM]
Cc1cccc(C(=O)N2CCC3(CC2)c2[nH]c4ccccc4c2CCN3C)c1 | -2.3%
COc1ccc(OC)c(CN2CCC3(CC2)OC(=O)N(Cc2ccc(O)cc2)C3(C)c2ccccc2)c1 (stereo not drawn) | ?
CNC(=O)c1noc(CN2CCN(C)C3(CCNC(=O)CC3)C2)n1 (stereo not drawn) | 4.9%
O=C(NCC1CC1)c1cc2n(n1)CC(c1ccc(Cl)cc1)OC2 (stereo not drawn) | -6.8%
Cc1ccc(C2=NC3(CCN(C(=O)c4ccc(C#N)cc4)CC3)ON2)cc1 | -0.9%
CCOc1ccc(C2Cn3nnc(-c4nc(-c5ccc(OC)c(F)c5)no4)c3CO2)cc1 (stereo not drawn) | -3.0%
COCC1CN(C)CC12CCN(C(=O)Cc1cccc(Cl)c1)CC2 (stereo not drawn) | -14.6%
COc1cccc(CN2CCC3(CC2)COc2ccccc2NC3=O)c1 | -4.3%
CCOc1ccc(CC(=O)NC2CCc3n[nH]c(=O)n3CC2)cc1OCC (stereo not drawn) | -2.8%
CCC(O)c1cc2n(n1)CCN(C(=O)Cn1nc(C)c3ccccc3c1=O)C2 (stereo not drawn) | -1.1%
C1CCC(c2noc(COCC3CC3)n2)NC1 (stereo not drawn) | 7.2%
Cc1nc(-c2ccc(F)cc2)n(Cc2ccc(F)cc2)c(=O)c1CCO | 4.7%
O=C(Nc1ccc2c(N3CCCC3)ncnc2c1)C1CCCO1 (stereo not drawn) | 3.2%

3 entries from above, with each value named:
> COc1cccc(CN2CCC3(CC2)COc2ccccc2NC3=O)c1
- NPR1 antag: -4.3%

> CCOc1ccc(CC(=O)NC2CCc3n[nH]c(=O)n3CC2)cc1OCC (stereo not drawn)
- NPR1 antag: -2.8%

> CCC(O)c1cc2n(n1)CCN(C(=O)Cn1nc(C)c3ccccc3c1=O)C2 (stereo not drawn)
- NPR1 antag: -1.1%

(further entries)
SMILES | NPR1 antag
Cc1oc(-c2ccccc2)nc1CC(=O)NCc1cc2n(n1)CCNC2 | 0.0%
Cc1ccc(C)c(C(=O)N2CCCC(n3cc(-c4nc(C)no4)nn3)C2)c1 (stereo not drawn) | -0.2%
COCCOc1ccc(-c2noc([C@@H]3CCCN3Cc3c[nH]c4ccccc34)n2)cn1 | -9.2%[70.6 µM]
Cc1nnc(C(C)NC(=O)C2CCN(C(=O)C3CCCC3)CC2)o1 (stereo not drawn) | -1.4%
O=C1CC2(CCN([S+](=O)([O-])c3cccc(C(F)(F)F)c3)CC2)Oc2ccccc2N1 | -8.1%
Cc1cc(C)cc(N2CCC(NC(=O)c3cc(F)cc(F)c3)C2=O)c1 (stereo not drawn) | -8.8%
Cc1cccc(NC(=O)N2CCC(Oc3ncccc3C(=O)N3CCOCC3)C2)c1 (stereo not drawn) | 2.8%
O=C(C1CCOCC1)N1CCC(Oc2nccnc2N2CCOCC2)C1 (stereo not drawn) | -10.9%
O=C(C1CCOCC1)N1CCC2(CC1)CC(N1CCCC1)CCO2 (stereo not drawn) | 4.1%
O=C(NCc1ccc(F)cc1)N1CCCC(Cn2c(C3CC3)nc3cccnc32)C1 (stereo not drawn) | 4.8%
Cc1ccccc1-c1cc(C(=O)NCc2cccnc2)c2c(c1)ncn2C | -4.8%[70.6 µM]
Cc1ccc(OCC(=O)N2CCC(c3noc(-c4ccccn4)n3)C2)cc1 (stereo not drawn) | 7.2%
COCc1nncn1C1CCN(C(=O)c2ccc(C)s2)CC1 | -11.2%
CC(C)CCN1CCCC2(COc3ccccc3C(=O)N2)C1 (stereo not drawn) | 4.1%[70.6 µM]
Cc1n[nH]c(C)c1CCC(=O)NCC1CCN(c2cc(-c3ccccc3)[nH]n2)CC1 | -8.6%
O=C(NCCc1ccncc1)C1CN(C(=O)c2ccsc2)CC12CCOCC2 (stereo not drawn) | -4.5%
c1cncc(-c2ccnc(NCCc3csc(-c4ccncc4)n3)n2)c1 | 4.7%
CS(=O)(=O)N1CCCN(C(=O)c2ccccc2C2CCNC2)CC1 (stereo not drawn) | -1.3%
COc1ccc(-c2[nH]nc3ncc(-c4ccccc4F)nc23)cc1F | -15.7%[70.6 µM]
COCCN(Cc1nccs1)C(=O)c1oc2ccc(C)cc2c1C | -8.9%
CC1Oc2ccc(NC(=O)c3ccccc3F)cc2CN(Cc2ccccc2F)C1=O (stereo not drawn) | -0.4%
COc1cc(OC)cc(C(=O)N2CCC3(CC2)NC(=O)N(c2cccc(Cl)c2)N3)c1 | 5.9%
Fc1ccc(Cc2noc(-c3nc(-c4ccccc4)no3)n2)cc1 | -3.6%
CCC(=O)N(C1CCOCC1)C1CCN(S(=O)(=O)c2ccc(Cl)c(C)c2)CC1 | -16.1%

2 compounds picked at random from the list so far:
SMILES | NPR1 antag
COc1cc(OC)cc(C(=O)N2CCC3(CC2)NC(=O)N(c2cccc(Cl)c2)N3)c1 | 5.9%
COc1ccc(-c2[nH]nc3ncc(-c4ccccc4F)nc23)cc1F | -15.7%[70.6 µM]

Further entries follow:
SMILES | NPR1 antag
CN1CCC(NC(=O)C2(C)CCc3cnc(N4CCOCC4)nc32)CC1 (stereo not drawn) | 0.5%[70.6 µM]
O=C([C@@H]1C[C@H](F)CN1C(=O)c1ccc(F)cc1)N1CCOCC1 | -2.1%
CN(C)CCNC(=O)C[C@@H]1CCNC[C@@H]1Cc1cc(CN(C)Cc2ccccc2)on1 | -0.3%[70.6 µM]
CCS(=O)(=O)NCC1(COc2ccccc2)C[C@@H](O)[C@@H](O)C1 (stereo partly drawn) | -3.1%[70.6 µM]
Cc1cc(C(=O)Nc2ccc([C@@H](O)[C@H]3COCC(=O)N3CC(C)C)cc2)n(C)n1 | -20.9%[70.6 µM]
CC(C)(C)C(=O)Nc1nc2c(s1)C[C@@H]1[C@](C)(CO)[C@H](O)CC[C@@]1(C)[C@@H]2CC(=O)NC1CCCC1 | -0.5%
Cn1c2c(c3ccccc31)CN(C(=O)Nc1cccc(Br)c1)CC2 | -9.2%
CC(=O)N1CCC(Cc2ccc(C(=O)N(C)C)cc2)CC1 | -1.5%
CCc1nncn1C1CCN(S(=O)(=O)c2cc(F)cc(F)c2)CC1 | 2.2%
CNC(=O)[C@@H]1C[C@H](Oc2cccnc2)CN1S(=O)(=O)c1ccc(C#N)cc1 | -1.3%
CNC(=O)[C@@H](c1ccccc1)N1CCC[C@H]1C(=O)N1CCN(C(C)=O)CC1 | -1.5%[70.6 µM]
COc1ccc(CN2CCc3nn(CC4CC4)c(=O)n3CC2)c(Cl)c1OC | -12.4%
C[S+](=O)([O-])N1CCC(Cn2ccc3c(N4CCOCC4)nc(-c4cccc(C(N)=O)c4)cc32)CC1 | -0.3%
O=S(=O)(N[C@H]1CO[C@H]2[C@@H]1OC[C@@H]2n1nnnc1Oc1ccc(-n2ccnc2)cc1)c1ccc2ccccc2c1 | ?
Cc1ncoc1C(=O)N1CCN(C(=O)N2CC3CC(C2)[C@H]2CCCC(=O)N2C3)CC1 (stereo partly drawn) | 5.0%
O=C(NC[C@H]1COCc2nc3cc(C(F)(F)F)ccc3n21)C1CC1 | -3.8%[70.6 µM]
COc1cc(SC)ccc1C(=O)N[C@H]1C[C@@](O)(C(=O)NCCC(N)=O)C[C@@H](O)[C@@H]1O | 1.6%
O=C(Nc1ccccc1)N1C[C@@H](F)[C@@H](OCc2nc3ccc(F)cc3[nH]2)C1 | -15.4%[70.6 µM]
CCCn1ncc(CN2CC[C@H](N3CCN(C)CC3)[C@H](CCC(=O)O)C2)c1C | -2.4%
COc1cc(SC)ccc1C(=O)N[C@H]1CCN2C(=O)[C@@H](CC(C)C)NC(=O)[C@@H]2C1 | -10.0%[70.6 µM]
c1cncc(-c2cnc([C@@H]3COCCN3Cc3cnc4ccccc4c3)[nH]2)c1 | 3.9%[70.6 µM]
COC1CCN(c2cc(-c3ccsc3)nc3c(C)noc23)CC1 | -2.1%[70.6 µM]
Cc1cc(CNC(=O)C2CCCCn3nnnc32)c2[nH]c(-c3ccccc3)c(C)c2c1 (stereo not drawn) | -11.1%
Cc1n[nH]c(C)c1CCNC(=O)c1ccccc1OC1CCN(Cc2ccccn2)CC1 | -2.5%
O=C(c1cccc(F)c1)N1CCOC[C@H](Oc2ccc(C(F)(F)F)cc2)C1 | 28.2µM*
CN(C)Cc1cn([C@H]2CO[C@H]3[C@@H]2OC[C@H]3O)nn1 | 3.4%[70.6 µM]
CCOCCCNC(=O)c1noc(-c2ccc[nH]c2=O)n1 | -4.3%
C[C@@H](NC(=O)c1cccn1C)c1onc(-c2ccc(F)cc2)c1C(=O)O | 0.3%[70.6 µM]
O=C(NCc1ccc(N2CCOCC2)cc1)c1cccnc1N1CC2CC(C1)[C@H]1CCCC(=O)N1C2 (stereo partly drawn) | 2.3%
Cn1ccnc1CN1CCN(Cc2cc3n(n2)CCNC3)CC1 | 3.2%
CN1CCCCCC1C(=O)NCc1cccnc1Oc1ccccc1F (stereo not drawn) | 7.4%
O=C(NCc1ccc(F)cc1)N1CCC(n2cnnc2C2CC2)C1 (stereo not drawn) | 0.9%
Cn1ccnc1C(=O)N1CCCCCCNC(=O)[C@@H]2C[C@@H](c3nc(Cc4ccccc4)no3)C[C@@H]21 | -7.2%
CCN1c2cc(C(=O)Nc3ccc(OC)c(OC)c3)ccc2C(=O)N2CCCC21 (stereo not drawn) | 8.5%
CC(=O)N1CCN(C[C@@H]2C=C(C)[C@H](Cc3nnc(-c4cccnc4)o3)C[C@H]2C(C)C)CC1 | -0.3%
O=c1n(-c2ccc([N+](=O)[O-])cc2)nc2n1CCN(Cc1ccc(F)cc1)C2 | ?
Cc1ccc(-c2cccc(C(=O)N3CC[C@](C)(O)[C@H](C)C3)c2)o1 | -1.5%
O=C1Nc2cnccc2C2(CCN(C(=O)c3cccnc3)C2)O1 (stereo not drawn) | 10.2%[70.6 µM]
CCC(C(=O)N1CCCN(c2cc(-c3ccc(OC)cc3)[nH]n2)CC1)c1ccccc1 (stereo not drawn) | -1.7%
Cn1nccc1C(=O)N1CCCCCCNC(=O)[C@@H]2C[C@@H](c3nc(Cc4ccccc4)no3)C[C@@H]21 | 6.2%
O=C(Nc1ccccc1)N1CCCC(c2nc(CCOc3ccc(F)cc3)no2)C1 (stereo not drawn) | -29.5%

These rows are one share of the data; rates above refer to the full screens.
